# From PubChem
# PK Bst = pyruvate kinase (B. stearothermophilus) modulation; partly purified Bacillus stearothermophilus pyruvate kinase, luminescence ATP production; ribose 5-phosphate activator present at AC10; Potency, µM; 1.2% of 51,000 active; in the data active means potency below about 11 µM; inconclusive means mostly about 12 µM to 25 µM; inactive means weaker than that;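 the screen sought inhibitors and activators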;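 note: potency is the fitted concentration of half-maximal effect; scaled between full activation by ribose 5 phosphate and full inhibition by luteolin; about four in five hits inhibit and the cells do not say which; series up to 57 µM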
# TsaE inh = displaces an ADP probe from E. coli YjeE (TsaE) | 0.05% of 71,000 active | purified YjeE, fluorescence polarisation of a bound ADP probe | Potency, µM; active = well fitted falling curve; inconclusive = weaker or top-dose-only fall, or a rising curve; inactive = flat or poorly fitted curve;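 note: top concentration of the series not given in the record; excess ADP was the control for the full effect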
#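 Fluorescence polarization of a BODIPY Texas Red–ADP probe (2 uM) bound to purified YjeE (10 uM) was read after 15 min room-temperature incubation with compounds. Loss of polarization marks inhibitors; ADP serves as titrated control.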
# Starred values were filed as active, the others as inactive; i = inactive; ? = inconclusive; / = not tested or not shown. This is a subset; rates above refer to the full screens.
No.	compound	TsaE inh	PK Bst
1	CN1CCN(c2ccc(NC(=O)Cc3ccccc3)cc2)CC1	i	>57
2	CCOC(=O)c1c(C)[nH]c(C(=O)Cn2nnc(-c3ccc(Cl)cc3)n2)c1C	i	>57
3	CC(C)(C)c1ccc(S(=O)(=O)NCCc2ccncc2)cc1	i	>57
4	Cc1ccc(N2CC(C(N)=O)CC2=O)cc1C (stereo not drawn)	i	>57
5	O=C(NCCCn1ccnc1)NC(C(F)(F)F)C(F)(F)F	i	>57
6	CCc1c2c(nc3ccc(OC)cc13)OC(CC)C2 (stereo not drawn)	i	/
7	COc1cc(CN(C)CC(=O)c2[nH]c(C)c(C(C)=O)c2C)ccc1OC(F)F	i	>57
8	CCCCCc1c(C)nc(N2CCc3ccccc32)[nH]c1=O	i	>57
9	C=CCNc1ccc(F)c(F)c1N1CCCCCC1=O	i	>57
10	CSCC[C@H](NC(=O)NCCc1ccc(F)cc1)C(=O)O	i	>57
11	O=C(c1cc(-c2ccncc2)nc2ccc(Cl)cc12)N1CCN(C(=O)C2CCCO2)CC1 (stereo not drawn)	i	i
12	c1ccc(-c2ccc(-c3nc(-c4cccnc4)no3)cc2)cc1	i	/
13	CCOc1ccccc1NC(=O)NC1CC2CCCC(C1)N2Cc1nnnn1CCc1ccccc1 (stereo not drawn)	i	>57
14	O=C(O)CSC1CC(=O)N(c2cccc(Cl)c2)C1=O (stereo not drawn)	i	>57
15	CN(C)S(=O)(=O)c1ccc(C(=O)NCc2ccccc2)cc1	i	>57
16	CCOC(=O)c1ccc(N=c2sc(C(=O)OC)cc(=O)n2C2CC2)cc1	i	>57
17	CCOC(=O)Cn1c(CN2CCc3ccccc3C2)nc2c1c(=O)n(C)c(=O)n2C	i	/
18	COC(=O)C(O)(NC(=O)OCc1ccccc1)C(F)(F)F (stereo not drawn)	i	>57
19	COc1ccc(-n2c(=O)c3ccccc3n(CC(=O)NC3CCCCC3)c2=O)c(OC)c1	i	>57
20	O=C(NC1CCSC1=O)c1ccc(Cl)cc1 (stereo not drawn)	i	/
21	O=C(CSc1nnc(Cc2ccccc2)o1)NCCN1C(=O)CSC1=O	i	>57
22	CC(=O)c1cccc(NC(=O)CCNS(=O)(=O)c2cccc(C(C)=O)c2)c1	i	?
23	COc1cccc(C(=O)N(Cc2cc3cc(C)ccc3[nH]c2=O)C(C)C)c1	i	/
24	c1ccc2c(SCc3cn4cccnc4n3)ncnc2c1	i	>57
25	Nc1cc(-c2ccc(Br)cc2)[nH]n1	i	/
26	CCOC(=O)c1ccc(N2C(=O)c3n[nH]c(C)c3C2c2ccco2)cc1 (stereo not drawn)	i	>57
27	Cc1cccc(CSc2nncc(=O)[nH]2)c1	i	>57
28	CSCCC1NC2(C(=O)Nc3c(C)cc(Cl)cc32)[C@@H]2C(=O)N(C3CCCC3)C(=O)[C@H]12 (stereo partly drawn)	i	>57
29	C=CCn1c(COc2cccc3ccc(C)nc23)nnc1SCC(=O)O	i	i
30	CCCN1C(=O)c2cc(C(=O)NCCc3cccc(C)c3)ccc2C1O (stereo not drawn)	i	/
31	O=C(CN1CCN(Cc2ccccc2)C1=O)NCc1ccc(Cl)cc1	i	>57
32	Cn1nc(CC(=O)Nc2cccc3ncccc23)c2ccccc2c1=O	i	>57
33	CC(Sc1ccc2c(c1)OCCO2)C(=O)Nc1ccc2c(c1)OCO2 (stereo not drawn)	i	>57
34	CC1CCCCC1NC(=O)CCn1c(=O)oc2ccccc21 (stereo not drawn)	i	>57
35	COc1ncc2nc(C)c(=O)n(CCc3ccccc3)c2n1	i	/
36	Cc1ccc2nsnc2c1NS(=O)(=O)c1c(C)ccc2nsnc12	i	>57
37	CCOC(=O)c1cccc(NS(=O)(=O)c2cnc[nH]2)c1	i	>57
38	COc1ccc(Nc2ccnc3ccccc23)cc1	i	i
39	CN(C(=O)COC(=O)C1c2ccccc2Oc2ccccc21)C1CCS(=O)(=O)C1 (stereo not drawn)	i	>57
40	O=S(=O)(c1ccccc1)c1nc(-c2ccco2)oc1N1CCCCCC1	i	>57
41	CC(C)C(=O)Nc1ccc(NC(=O)c2ccccn2)cn1	i	i
42	Cc1c(N=Cc2ccc[nH]2)c(=O)n(-c2ccccc2)n1C	i	/
43	CCOC(=O)N1CCN(Cc2nc(-c3ccc(OC)cc3)no2)CC1	i	>57
44	Cc1ccc(C)c(S(=O)(=O)Nc2ccc(O)cc2)c1	i	/
45	COc1ccccc1NC(=O)C1CCN(c2ncccn2)CC1	i	>57
46	CCC(=O)N1CCc2cc(S(=O)(=O)NCCC(=O)NC3CCCc4ccccc43)ccc21 (stereo not drawn)	i	/
47	Cc1ccc(-n2ncc(C#N)c2/N=C/N2CCN(C)CC2)cc1	i	>57
48	S=c1[nH]nc(Cc2c[nH]c3ccccc23)o1	i	>57
49	COCCNC(=O)C(c1ccco1)N(Cc1ccc(OC)cc1)C(=O)Cn1nnc2ccccc21 (stereo not drawn)	i	>57
50	CCOC(=O)CSc1nc2c(c(=O)n(C)c(=O)n2C)n1Cc1ccccc1F	i	/
51	Cn1cnnc1SCc1ccccc1Br	i	>57
52	CCOc1cccc(-c2nnc3sc(COc4ccccc4)nn23)c1	/	>25.6
53	COc1cccc(C2c3c(oc4ccccc4c3=O)C(=O)N2c2ccccn2)c1 (stereo not drawn)	i	/
54	COc1ccc(-c2nc3cnc(N4CCN(C)CC4)nc3n(CCc3ccccc3)c2=O)cc1	i	/
55	C=CCn1c(Cc2c[nH]c3ccccc23)n[nH]c1=S	i	>57
56	COc1ccc(S(=O)(=O)NC(CC(=O)NC2CCCC2)c2ccco2)cc1 (stereo not drawn)	i	>57
57	O=c1c2cnn(-c3ccccc3)c2ncn1Cc1ccccc1F	i	/
58	CC(C)Oc1snc(Cl)c1C(N)=O	i	>57
59	NC(=O)CSc1nnc(Cn2c(=O)sc3ccccc32)n1-c1cccc(Cl)c1	i	>57
60	Cn1c(SCc2nc3ccccc3[nH]2)nnc1-c1cnccn1	i	>57

# Reformatted: entries from further up.
[40] O=S(=O)(c1ccccc1)c1nc(-c2ccco2)oc1N1CCCCCC1
[15] CN(C)S(=O)(=O)c1ccc(C(=O)NCc2ccccc2)cc1
[47] Cc1ccc(-n2ncc(C#N)c2/N=C/N2CCN(C)CC2)cc1

assay / compound | 40 | 15 | 47
TsaE inh | i | i | i
PK Bst | >57 | >57 | >57

# Continued:
No.	compound	TsaE inh	PK Bst
61	CC(=O)c1cc2c(cc1NC(=O)C1CC=CCC1C(=O)O)OCO2 (stereo not drawn)	i	>57
62	Cc1cc(C)n2nc(NCc3ccccc3)nc2n1	i	>57
63	Clc1cccc(Cl)c1-c1nnc2ccc(N3CCOCC3)nn12	i	>57
64	CCOc1ccc(NC(=O)N2CCN(CC)CC2)cc1	i	>57
65	c1ccc2ccccc2c1	i	/
66	CS(=O)(=O)N(CC(=O)O)Cc1ccccc1	i	/
67	COc1ccc(C2Nc3ccccc3C(=O)N2Cc2ccco2)cc1CN1C(=O)c2ccccc2C1=O (stereo not drawn)	/	>25.6
68	CCn1c(SCC(=O)Nc2oc(-c3ccccc3)c(-c3ccccc3)c2C#N)nnc1-c1ccco1	i	>57
69	NC(=O)CSc1nnc(-c2ccncc2)n1-c1ccc(Cl)cc1	i	/
70	Cc1ccc(CN2CCN(CC(=O)N3CCC(C(N)=O)CC3)C2=O)cc1	i	/
71	COc1ccc(CCNC(=O)CN2C(=O)c3ccccc3S2(=O)=O)cc1OC	i	>57
72	CC1CN(c2nc3c(c(=O)n(Cc4ccc(Cl)c(Cl)c4)c(=O)n3C)n2C)CC(C)O1 (stereo not drawn)	i	?
73	Nc1nc(-c2ccc(Br)cc2)cs1	i	i
74	COCCc1ccc(OCC(O)CNC(C)C)cc1 (stereo not drawn)	/	>25.6
75	COc1ccc(N2CCN(C(=O)CSc3nnc4ncccn34)CC2)cc1	i	>57
76	CC(/C=C/c1ccccc1)=N/O	i	/
77	COCCn1c(=O)c(-c2cc(F)cc(F)c2)nc2cnc(N3CCN(C)CC3)nc21	i	/
78	Cc1ccc2[nH]c(=O)c(CN(CCN3CCOCC3)C(=O)Nc3ccc(F)cc3)cc2c1	i	i
79	Cc1ccc(Cn2ccc(NC(=O)c3cc(-c4ccccc4)on3)n2)cc1	i	>57
80	CCn1c(SCC(=O)NCCc2ccc(F)cc2)nnc1-c1cccs1	i	>57
81	O=C(NCc1ccco1)c1cnn2c(C(F)(F)F)cc(-c3ccco3)nc12	/	>25.6
82	COc1cc(OC)c(NC(=O)CCNC(=O)Cn2cnc3ccccc3c2=O)cc1Cl	i	>57
83	CCNc1ncc2nc(CCc3ccccc3)c(=O)n(-c3ccccc3)c2n1	i	/
84	O=S(=O)(c1ccc2c(c1)oc1ccccc12)N1CCOCC1	i	>57
85	C=CCn1c(SCC(=O)Nc2cc(C)nn2-c2ccccc2)nnc1C1CCCCC1	i	>57
86	COc1ccc(N2CCN(Cc3nc(N)nc(N4CCCc5ccccc54)n3)CC2)cc1	i	>57
87	CC1CCCCC1NC(=O)COC(=O)c1ccc(S(=O)(=O)N2CCOCC2)cc1 (stereo not drawn)	i	>57
88	CCOC(=O)c1cnc(SC2CC(=O)N(c3ccc(OC)c(OC)c3)C2=O)nc1N (stereo not drawn)	i	>57
89	Cc1ccc2cccc(SCC(=O)NCc3ccco3)c2n1	i	i
90	Cc1cc(C)n(CCCNC(=O)c2ccc(S(=O)(=O)NCc3ccco3)cc2)n1	i	>57
91	O=c1c(-c2ccc(Cl)cc2)nc2cnc(N3CCOCC3)nc2n1C[C@H]1CCCO1	i	/
92	O=C(CNC(=O)c1ccc(Br)o1)Nc1cccc(-c2cnc3ccccc3n2)c1	i	>57
93	CC(=O)Nc1ccc2c(c1)/C(=C/c1ccc([N+](C)(C)C)cc1)c1ccccc1-2	i	/
94	CCOC(=O)C1CCN(c2ncnc3c2oc2ccccc23)CC1	i	i
95	CCOC(=O)c1ccc(NC(=O)CSc2nnc(COc3ccccc3OC)n2C)cc1	i	>57
96	CC(C)c1cccc2c([Si](C)(C)C)c3c(nc12)-c1cccc(=O)n1C3	i	/
97	COc1cc(NC(=O)C2CCCN2S(=O)(=O)c2ccc3c(c2)CCC(=O)N3)cc(OC)c1 (stereo not drawn)	i	/
98	CCC(Sc1nc(=O)cc(N)n1CCc1ccccc1)C(=O)Nc1cc(C)on1 (stereo not drawn)	i	/
99	CN(C)c1nc(Oc2ccc(=O)n(C)n2)nc(N2CCOCC2)n1	i	>57
100	O=C1Nc2ccc(S(=O)(=O)N3CCCC3C(=O)O)c3cccc1c23 (stereo not drawn)	i	/
101	CCCc1nnc(NC(=O)CN2C(=O)c3ccccc3S2(=O)=O)s1	i	>57
102	CCS(=O)(=O)n1nc(NCc2cccc(OC)c2)nc1NCc1cccc(OC)c1	i	>57
103	CS[C@]12C(=O)C[C@]3(C)[C@@H](CC[C@@]3(O)C(=O)CO)[C@@H]1CCC1=CC(=O)CC[C@]12C	i	/
104	O=C(CC(Nc1ccc(F)cc1)C(=O)O)c1ccccc1 (stereo not drawn)	i	?
105	Cc1nnc(SCC(=O)NCc2ccccc2)s1	i	/

# In the list so far, these contain bromine:
No.	compound	TsaE inh	PK Bst
25	Nc1cc(-c2ccc(Br)cc2)[nH]n1	i	/
51	Cn1cnnc1SCc1ccccc1Br	i	>57
73	Nc1nc(-c2ccc(Br)cc2)cs1	i	i
92	O=C(CNC(=O)c1ccc(Br)o1)Nc1cccc(-c2cnc3ccccc3n2)c1	i	>57

# More entries follow:
No.	compound	TsaE inh	PK Bst
106	COc1ccc(N2C(=O)CC(N3CCN(c4nc5ccccc5s4)CC3)C2=O)cc1 (stereo not drawn)	i	>57
107	O=C(Cc1ccc(-n2cnnn2)cc1)NC12CC3CC(CC(C3)C1)C2	i	>57
108	O=C(CN1CCOCC1)N(c1ccccc1)c1ccc2ccccc2c1	i	/
109	Cc1cc(/C=N/n2cnnc2)c(C)n1-c1ccc(C(=O)O)cc1	i	/
110	Cc1nc(NC(=O)CSc2nnnn2Cc2ccccc2)sc1C	i	>57
111	CC1=CC2=NC(=O)CC(C)(C(=O)N(CC(=O)NC(C)(C)C)C3CCCC3)N2C=C1 (stereo not drawn)	i	>57
112	N#Cc1nc(-c2cccs2)oc1NCCc1ccccc1	/	i
113	CCOC(=O)N1CCN(S(=O)(=O)c2cc(OCC(N)=O)c(C)cc2Cl)CC1	i	?
114	COc1ccc(Nc2nc(C)cc(C)c2C(N)=O)c(OC)c1	i	>57
115	O=c1cc(CN2CCN(c3ccc(F)cc3)CC2)nc2sccn12	i	>57
116	CCC(C)NC(=O)Cn1cc2c(n1)CCC(C)C2 (stereo not drawn)	i	/
117	Oc1ccc(C(=S)N2CCCCC2)cc1Cl	i	>57
118	Cc1cc2cc(C(c3nnnn3Cc3ccco3)N3CCc4ccccc43)c(=O)[nH]c2cc1C (stereo not drawn)	i	>57
119	COC(=O)CSc1nc2cc3c(cc2cc1C)OCCO3	i	>57
120	CC1CCCN(C(=O)Cn2c(=O)oc3ccccc32)C1 (stereo not drawn)	i	>57
121	CCOc1ccc(NC(=O)CN2C(=O)C3CC=CCC3C2=O)cc1 (stereo not drawn)	i	>57
122	CCc1nnc(NC(=O)c2ccc(S(=O)(=O)N3CCCCC3C)cc2)s1 (stereo not drawn)	i	>57
123	CCOC(=O)C1=CSC2=NS(=O)(=O)CCN12	i	>57
124	CCOC(=O)c1c(Nc2nc(C)c(C(=O)NC)s2)sc(C)c1C	i	>57
